VDR inhibitor: Inhibitors of the vitamin D receptor (VDR): qHTS. Vitamin D3 receptor (Homo sapiens), P11473. VDR-SRC2-3 peptide fluorescence polarization, 2 h. Potency, µM, without a hit: max response, negative = inhibition, actives largely listed as inhibitors. 400,000 tested, 0.93% active. AID 504847, 2011; active = well fitted inhibition curve with a large enough effect; inconclusive = small, poorly fitted or top-dose-only effect, or another doubt; inactive = no such curve, though single readings can be large or run the other way; note: series mostly up to about 120 µM
Target sequence (P11473 whole entry, looked up): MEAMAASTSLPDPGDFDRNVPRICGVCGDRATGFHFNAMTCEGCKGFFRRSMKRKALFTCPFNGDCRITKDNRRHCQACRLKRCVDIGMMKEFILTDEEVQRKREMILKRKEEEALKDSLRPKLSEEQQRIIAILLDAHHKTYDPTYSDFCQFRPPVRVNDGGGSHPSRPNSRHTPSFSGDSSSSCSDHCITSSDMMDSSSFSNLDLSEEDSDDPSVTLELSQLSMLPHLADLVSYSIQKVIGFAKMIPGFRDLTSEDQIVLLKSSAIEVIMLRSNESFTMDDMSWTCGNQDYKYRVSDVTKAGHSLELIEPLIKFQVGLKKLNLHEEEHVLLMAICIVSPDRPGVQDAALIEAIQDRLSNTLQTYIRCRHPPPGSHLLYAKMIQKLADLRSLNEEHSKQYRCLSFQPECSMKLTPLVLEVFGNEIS
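Fluorescence polarization assay of small-molecule disruption of VDR binding to coregulator peptide SRC2-3. Compounds and controls pin-transferred, then read after 2 h incubation at ambient room temperature.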
Starred values were filed as active, the others as inactive; ? = inconclusive; & = joins results of further samples; [ ] = another dose, or the depositor's remark. % is set by controls: 0 for no effect and ±100 for the full control effect; potency is the fitted concentration of half-maximal effect.

VDR inhibitor | Structure
-3% | CC[C@]12c3[nH]c4cc(CCC(=O)N(C)C)ccc4c3CCN1C(=O)[C@@H](CC(=O)NCc1cccc(C(F)(F)F)c1)C[C@@H]2C(=O)N1CCN(C(=O)c2ccco2)CC1
-11% | COc1ccc(CN2CCC(n3nccc3NC(=O)C3CC3)CC2)cc1O
-9% | COc1ccc(N(CC(=O)NCc2ccc(F)cc2)C(=O)CCC(=O)Nc2ccccn2)cc1
-3% | COC(=O)c1ccccc1NC(=O)c1cc(C2CC2)on1
3% | C=CCN(c1ccc(C(=O)Nc2cccc([N+](=O)[O-])c2)cc1)S(C)(=O)=O
-9% | Cc1ccc(C2c3[nH]c4ccccc4c3C[C@H]3C(=O)N(c4ccccc4C(=O)NCCCN4CCOCC4)C(=O)N23)cc1 (stereo partly drawn)
16% | O=C(O)C1CC(=O)N(CCc2ccccc2)C1 (stereo not drawn)
-7% | COc1ccc(-c2noc(CCC(=O)NCCCN3CCC(Cc4ccccc4)CC3)n2)cc1
3% | CN(Cc1cccs1)C(=O)Cc1csc(-c2ccccc2)n1
0% | Cc1ccc2c(c1)nnn2C1CCN(CC(=O)NCCc2nc3ccccc3[nH]2)CC1
8% | Cc1cccc(Oc2coc3cc(OCC(=O)NC4CCCCC4)ccc3c2=O)c1
7% | COC1CCN(Cc2c(C(=O)N3CCc4ccccc4C3)nc3ccc(Cl)cn23)CC1
-2% | COc1ccc(OC)c(S(=O)(=O)N2Cc3ccccc3CC2C(=O)Nc2ccc(Cl)cc2)c1 (stereo not drawn)
-16% | COc1ccc(CNC(=O)c2ccc(NC(=O)C3CCCO3)cc2)cc1 (stereo not drawn)
-15% | CC(=O)c1cc(CN2CCN(C3CCN(C(C)C)CC3)C(CCO)C2)cs1 (stereo not drawn)

In a second layout: entries from further up
SMILES: COC(=O)c1ccccc1NC(=O)c1cc(C2CC2)on1
- VDR inhibitor = -3%
SMILES: C=CCN(c1ccc(C(=O)Nc2cccc([N+](=O)[O-])c2)cc1)S(C)(=O)=O
- VDR inhibitor = 3%
SMILES: Cc1ccc(C2c3[nH]c4ccccc4c3C[C@H]3C(=O)N(c4ccccc4C(=O)NCCCN4CCOCC4)C(=O)N23)cc1 (stereo partly drawn)
- VDR inhibitor = -9%
SMILES: O=C(O)C1CC(=O)N(CCc2ccccc2)C1 (stereo not drawn)
- VDR inhibitor = 16%

Next section.
VDR inhibitor | Structure
8% | C/C(=N\NC(=O)c1cc(-c2ccccn2)nc2ccccc12)c1cccc([N+](=O)[O-])c1
-4% | Cc1cc(=O)n2nc(N3CCCC(C(=O)N4CCOCC4)C3)sc2n1 (stereo not drawn)
-8% | CC(C)c1nnc(NC(=O)C2CCN(C(=O)C(C)(C)C)CC2)s1
-3% | CCOC(=O)CC1=NC(=O)CS1
9% | Cc1ccc(NC(=O)CSc2nnc(COc3ccc(C#N)cc3)n2-c2ccccc2)cc1C
-14% | CCOc1ccc2ccccc2c1/C=N/NC(=O)CNC(=O)c1ccccc1F
-1% | O=C(CSc1ccc([N+](=O)[O-])cc1)c1ccccc1
0% | Cc1ccc(OCC(=O)Nc2ccc(OCc3cc(=O)n4cccc(C)c4n3)cc2)cc1C
7% | CC(C)(O)c1ccc2c(c1)CCC1C(C)(C(=O)O)CCCC21C (stereo not drawn)
9% | O=C(CCOc1ccccc1)N(Cc1cccnc1)c1nc2c(F)cccc2s1
1% | Cc1ccc(C(C)C)c(OCCNC(=S)Nc2cccc3ccccc23)c1
8% | Cc1ccc(CN2CCN(Cc3ccc(OC(C)C)cc3)CC2CCO)o1 (stereo not drawn)
-3% | CC(C)Cn1c(N)c(C(=O)CSc2ncn[nH]2)c(=O)n(C)c1=O
10% | CCOc1ncccc1C(=O)OCC(=O)Nc1ccc(S(=O)(=O)N2CCCC2)cc1
-13% | CCCN(CCC)c1nc2ccccc2nc1C(C#N)C(=O)OCCOC (stereo not drawn)
-23% | O=c1cc(O)nc(-c2ccccc2)s1
6% | CCCCC(CCC(=O)Nc1nccs1)C(=O)O (stereo not drawn)
-6% | COc1ccc(CCC(=O)NNC(=O)Cn2nc(C)cc2C)cc1
-15% | O=C(COC(=O)c1ncc(Cl)c(Cl)c1Cl)NNC(=O)c1ccccc1
-12% | CCCCCCCCCOC(=O)C[n+]1csc(CCO)c1C
-17% | COCCn1c(=O)[nH]c(=O)c2c1nc(-c1ccc(-c3ccc(Cl)cc3[N+](=O)[O-])o1)n2Cc1ccccc1
7% | COc1ccccc1CNC(=O)CCC1N=C2c3ccccc3N=C(SCc3ccc(Cl)cc3)N2C1=O (stereo not drawn)
50µM* | CC(N=Cc1cccc(O)c1O)c1ccccc1 (stereo not drawn)
11% | O=C(COC(=O)CCC(=O)c1ccc(F)cc1)Nc1nnc(-c2ccccc2)o1
5% | CC1CCN(c2cc(N3CCOCC3)c([N+](=O)[O-])cc2F)CC1
-16% | CCn1ccnc1[C@@H]1C[C@H]2CN(Cc3ccccc3OC)C(=O)[C@]23CCCN13
14% | CC(CCc1ccccc1)NC(=O)CN1C(=O)NC2(CCCCC2)C1=O (stereo not drawn)
1% | COc1ccc(-c2csc(NC(=S)NC(=O)c3ccc(S(=O)(=O)N(C)C)cc3)n2)cc1OC
-11% | O=C(COc1ccccc1[N+](=O)[O-])Nc1ccccc1N1CCCC1
-1% | CN1CCN(C(c2ccc(Cl)cc2Cl)c2sc3nc(-c4ccco4)nn3c2O)CC1 (stereo not drawn)
8% | O=C(O)/C=C/c1cn(Cc2ccccc2)nc1-c1cccnc1
-10% | CCOc1ccc(/C=N/NC(=O)c2cc(-c3ccco3)nc3ccccc23)cc1
-23% | NS(=O)(=O)c1ccc(CNC(=O)c2sccc2-c2ccccc2)cc1
-17% | CCOC(=O)N1CCC(NC(=O)c2ccc3c(c2)N(C)C(=O)/C(=C/c2cccc(OC)c2)S3)CC1
-14% | O=[N+]([O-])c1ccc(NN=Cc2ccc(O)cc2)nc1
5% | COc1cccc(CSc2nnnn2-c2ccc(O)cc2)c1
-15% | COc1ccc(C2CC(c3ccccc3)Oc3cc(C)c(Cl)c(C)c32)cc1 (stereo not drawn)
-7% | Cc1cccc(NC(=O)Cc2nnc(NC(=O)Nc3ccccc3F)s2)c1
1% | C=CCN(CC(=O)NCC1CCCO1)C(=O)CCC(=O)Nc1cc(C)on1 (stereo not drawn)
-15% | COc1ccc(CCNC(=O)CCS(=O)(=O)c2ccc(C)cc2)cc1OC
4% | O=C(N/N=C/c1cccn1-c1ccc([N+](=O)[O-])cc1)C(O)c1ccccc1 (stereo not drawn)
-15% | CN(C)c1nc2n(c(=O)n1)CCO2
? | Fc1ccccc1NC(=S)Nc1cccc2cnccc12
-9% | Oc1ccc(-c2nc3ccc(Cl)cn3c2Nc2ccc3c(c2)OCO3)cc1
-28% | CCOC(=O)c1c(SC)[nH]c2c(Cl)cccc2c1=O
7% | CC(=O)Nc1ccc(S(=O)(=O)N2CCCC(C(=O)N3CCN(c4ccccc4)CC3)C2)cc1 (stereo not drawn)
0% | COc1cc(SC)ccc1C(=O)NC1CCCc2ccccc21 (stereo not drawn)
-18% | O=C1OC(C(=O)Nc2ccc(Cl)c(C(F)(F)F)c2)Cc2ccccc21 (stereo not drawn)
-4% | C/C(=N/N1CCN(c2ccccn2)CC1)c1cccc([N+](=O)[O-])c1
5%&6% | CCCCc1nc(SCC(=O)Nc2ccc(S(N)(=O)=O)cc2)n[nH]1
0% | COc1ccc(CN(C)C(=O)Cc2ccc(OC)c(S(=O)(=O)N3CCOCC3)c2)cc1OC
-18% | O=[N+]([O-])c1cccc2ccc(/C=C/c3cccc(Br)c3)nc12
-10% | O=C(Nc1ccc(S(=O)(=O)Nc2nccs2)cc1)c1nn(-c2ccccc2)ccc1=O
-5% | CC1CC(C)CN(c2ncc3c(n2)CC(c2ccccc2Cl)CC3=O)C1 (stereo not drawn)
10% | COc1cc(/C=N/NC(=O)c2ccc(NC(=O)C3CC3)cc2)ccc1OC(C)=O
-22% | COc1ccc(Cn2nnnc2C(c2ccccc2)N2CCN(C3CCCC3)CC2)cc1 (stereo not drawn)
9% | FC(F)(F)c1ccccc1NC(=S)N/N=C1\CC2CC=CC12 (stereo not drawn)
-9% | CCc1ccc(C(=O)C(C)OC(=O)c2nc3nc(C)cc(C)n3n2)cc1 (stereo not drawn)
-5% | Cc1cn(CC(=O)N(C)Cc2ccco2)c(=O)[nH]c1=O
-6% | C/C(Cl)=C/Cn1c(NCCCn2ccnc2)nc2c1c(=O)[nH]c(=O)n2C

(continued)
VDR inhibitor | Structure
-13% | CC(C)C(NS(=O)(=O)c1cccc(C(F)(F)F)c1)C(=O)O (stereo not drawn)
-5% | CCN1C(=O)CC2(C[N+]3(C)CCC2CC3)C1=O (stereo not drawn)
? | Cc1c(C(=O)NCCN2C(=O)S/C(=C\c3cccs3)C2=O)cccc1[N+](=O)[O-]
3% | COC(=O)c1sc(C(F)(F)F)c(-c2ccccc2)c1S(=O)(=O)N1CCOCC1
2% | COc1ccc(N(CC(=O)NCCSC2CCCCC2)S(C)(=O)=O)c(OC)c1
17% | COc1ccc(OC)c(NC(=O)C2CCCN(S(=O)(=O)c3ccc4c(c3)CCCC(=O)N4)C2)c1 (stereo not drawn)
10% | COc1ccc(S(=O)(=O)c2c(Nc3ccc(F)cc3)sc(C(=O)c3ccc(C)cc3C)c2N)cc1
-18% | O=[N+]([O-])c1ccc(N2CCN(CCO)CC2)c2ncccc12
18% | COc1cccc(NS(=O)(=O)c2ccc(S(=O)(=O)N3CCOCC3)cc2)c1
-9% | O=C(CSc1nccc(=O)[nH]1)NC1CCCC1
? | CN(C)c1ccc(C(C[N+](=O)[O-])c2c(N)n(C)c(=O)n(C)c2=O)c(F)c1C#N (stereo not drawn)
-10% | c1ccc(Cn2cc(-c3cccnc3)cn2)cc1
7% | Cc1ccc(NC2CCCN(C(=O)c3ccccc3N3CCOCC3)C2)cc1C (stereo not drawn)
-4% | Cc1cccc2c1-c1sc(C(=O)Nc3ccccc3N3CCN(C)CC3)cc1CO2
-7% | CC(C)CN(CCNC(=O)CN1C(=O)COc2ccc(S(=O)(=O)N3CCOCC3)cc21)CC(C)C

Rewritten as tab-separated lines: part of the list above.
structure	VDR inhibitor
Oc1ccc(-c2nc3ccc(Cl)cn3c2Nc2ccc3c(c2)OCO3)cc1	-9%
CCOC(=O)c1c(SC)[nH]c2c(Cl)cccc2c1=O	-28%
CC(=O)Nc1ccc(S(=O)(=O)N2CCCC(C(=O)N3CCN(c4ccccc4)CC3)C2)cc1 (stereo not drawn)	7%
COc1cc(SC)ccc1C(=O)NC1CCCc2ccccc21 (stereo not drawn)	0%

Back to the main list with the 2 entries that preceded the break.
VDR inhibitor | Structure
-4% | Cc1cccc2c1-c1sc(C(=O)Nc3ccccc3N3CCN(C)CC3)cc1CO2
-7% | CC(C)CN(CCNC(=O)CN1C(=O)COc2ccc(S(=O)(=O)N3CCOCC3)cc21)CC(C)C
0% | CC(=O)NS(=O)(=O)c1ccc(NC(=O)CN2C(=O)C3C4C=CC(C4)C3C2=O)cc1 (stereo not drawn)
7% | CCOCCCN(C(=O)Cn1nnc2ccccc21)C(C(=O)NCc1ccco1)c1ccncc1 (stereo not drawn)
89µM* | CCN1C(=O)N/C(=C/c2ccc(C)o2)C1=O
13%&3% | COc1ccc(S(=O)(=O)NC(C)(C)C)cc1-c1nnc2c3ccccc3c(C)nn12
6% | C[n+]1ccccc1/C=N\O
31%[activator] | COc1ccc(/C=N/n2nnnc2N)c(OC)c1
12% | COCCN(Cc1cc2cc(C)c(C)cc2nc1Cl)C(=O)N1CCOCC1
-10% | O=C(Nc1cccc(-c2nc3ncccc3o2)c1)c1ccco1
-18% | COc1ccc(C2CC(c3cccs3)=NN2C(=O)CSc2nc(=O)n3cc(C)ccc3n2)cc1 (stereo not drawn)
0% | COC(=O)c1ccccc1NC(=O)Cn1c(=O)nc(-c2ccccc2)c2cc(Cl)ccc21
2% | Cc1ccc2nc(SCC(=O)N3CCCCCC3)nc(=O)n2c1
0% | Nc1nn(-c2ccccc2)c(N)c1N=Nc1ccccc1
-6% | Cc1ccc(C2=N/C(=C\c3cccc(F)c3)C(=O)O2)cc1
-9% | O=C(c1ccccc1)n1nnc2ccccc21
12% | COc1cc(COCC(O)CN2CCc3ccccc3C2)cc(OC)c1OC (stereo not drawn)
5% | CCNC(=O)c1ccc(CSc2nc3ccncc3n2Cc2ccc(F)cc2)cc1
? | CCOC(=O)c1ccc(N=C2C(=S)N(c3ccc(C(=O)OCC)cc3)C(=N)N2/N=C/c2ccccc2)cc1
2% | CCS(=O)(=O)N1Cc2ccccc2CC1C(=O)N(C)Cc1ccc(OC)c(F)c1 (stereo not drawn)
-14% | CC(C)CCn1c(CN2CCN(Cc3ccccc3)CC2)nc2c1c(=O)n(C)c(=O)n2C
-23% | O=C(NC12CC3CC(CC(C3)C1)C2)c1ccc([N+](=O)[O-])cc1
9% | Cc1cc(C)cc(NC(=O)N2c3ccccc3NC(=O)CC2C)c1 (stereo not drawn)
12% | COc1ccc(S(=O)(=O)Nc2cccc3c2O[C@H](CN(C)S(=O)(=O)c2ccc(OC)cc2)[C@@H](C)CN([C@H](C)CO)C3=O)cc1
-3% | CCN1C(=O)/C(=C\N2CCOCC2)SC1=S
-11% | O=C1CCCC(=NCc2ccco2)C1
6% | O=C1c2ccccc2C(=O)N1CCc1c(-c2[nH]c3ccccc3c2CCN2C(=O)c3ccccc3C2=O)[nH]c2ccccc12
-6% | O=C1CCN(S(=O)(=O)c2ccc(Cl)cc2)N1
10% | O=C(Nc1ccc(Br)cc1Br)c1cccc2c1C(=O)N(C1CCCCC1)C2
-7% | COc1ccc(C)cc1-n1c(SCC(=O)NCc2ccco2)nc2c([nH]c3ccccc32)c1=O

An excerpt. The share of hits here may be higher or lower than overall.
